Screens from PubChem.
Bst PK mod: modulators of Bacillus stearothermophilus pyruvate kinase; partly purified Bacillus stearothermophilus pyruvate kinase, luminescence ATP production; ribose 5-phosphate activator present at AC10; actives 1.2% (n = 51,000); AID 361; Potency, µM; in the data active means potency below about 11 µM; inconclusive means mostly about 12 µM to 25 µM; inactive means weaker than that;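 the screen sought inhibitors and activators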;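 note: potency is the fitted concentration of half-maximal effect; scaled between full activation by ribose 5 phosphate and full inhibition by luteolin; about four in five hits inhibit and the cells do not say which; series up to 57 µM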
YjeE inh: YjeE (TsaE) inhibition, E. coli; actives 0.05% (n = 71,000); Potency, µM; purified YjeE, fluorescence polarisation of a bound ADP probe; P0AF67; AID 605; active = well fitted falling curve; inconclusive = weaker or top-dose-only fall, or a rising curve; inactive = flat or poorly fitted curve;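 note: top concentration of the series not given in the record; excess ADP was the control for the full effect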
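Fluorescence polarization of a BODIPY Texas Red–ADP probe (2 uM) bound to purified YjeE (10 uM) was read after 15 min room-temperature incubation with compounds. Loss of polarization marks inhibitors; ADP serves as titrated control.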
Numbers without * were called inactive; i = inactive; ? = inconclusive; . = no result given. The list is partial; count on the stated rates, not on these rows.

Preview, five compounds:
SMILES	Bst PK mod	YjeE inh
CCOC(=O)c1ccc2[nH]c3c(c2c1)CCCCC3=O	>57	i
O=C(NCCc1ccccn1)c1n[nH]c(=O)c2ccccc12	>57	i
COc1c(Cl)cc(Cl)cc1/C=N/n1cnnc1	>57	i
[O-]/[N+](=N\O)c1ccccc1	.	i
CCC1CCCCN1S(=O)(=O)c1ccc(S(=O)(=O)N2CCN(S(=O)(=O)CC)CC2)cc1 (centres undefined)	>57	i

The listing, previewed entries included:
SMILES	Bst PK mod	YjeE inh
CCOC(=O)c1ccc2[nH]c3c(c2c1)CCCCC3=O	>57	i
O=C(NCCc1ccccn1)c1n[nH]c(=O)c2ccccc12	>57	i
COc1c(Cl)cc(Cl)cc1/C=N/n1cnnc1	>57	i
[O-]/[N+](=N\O)c1ccccc1	.	i
CCC1CCCCN1S(=O)(=O)c1ccc(S(=O)(=O)N2CCN(S(=O)(=O)CC)CC2)cc1 (centres undefined)	>57	i
O=C1C2CCCN2C(c2cccs2)N1c1ccc(Cl)cc1 (centres undefined)	>57	i
CCCn1c(CN(C)Cc2ccccc2)nc2c1c(=O)n(C)c(=O)n2C	>57	i
COc1ccc(-c2noc(CCC(=O)NCc3cccnc3)n2)cc1OC	>57	i
C=CC(=O)CC	.	i
COc1ccccc1Cc1nc(-c2ccc(Br)o2)no1	.	i
COC(=O)CC1=C(C(=O)OC)C(c2cccs2)C(C#N)=C(N)O1 (centres undefined)	>57	i
O=C(c1cc2nc(C3CC3)cc(C(F)F)n2n1)N1CCOCC1	>57	i
CCOC(=O)c1c(C)nc(-c2ccccc2)nc1NC(=O)C(C)C	>57	i
O=C(NC(=O)c1ccccc1)OCC(F)(F)F	.	i
CCCSC1=C(C#N)C(c2ccc(Cl)cc2Cl)CC(=O)N1 (centres undefined)	.	i
COC(=O)CSc1nnnn1-c1ccccc1	>57	i
O=C(OCc1c(Cl)cccc1Cl)c1cnccn1	4.7*	i
CCCOC(=O)c1ccc(Oc2cn[nH]c2-c2ccc(OCC)cc2O)cc1	>57	i
CCN(CC)C(=O)CSc1nnc(-c2cccnc2)n1CCc1ccccc1	>57	i
Cc1ccccc1NC(=O)NCCCN1CCN(C2CCCCC2)CC1	>57	i
CCn1c(SCC(=O)Nc2sc(C)c(C)c2C#N)nnc1C(C)C	>57	i
CCOC(=O)CCc1nn(C)c(=O)c2ccccc12	>57	i
CCCNS(=O)(=O)c1ccc(NC(=O)c2ccccn2)cc1	>57	i
COC(=O)CNC(=O)c1c(C)cc(=O)oc1C	>26	.
COc1ccccc1-c1nc(C#N)c(N2CCC(Cc3ccccc3)CC2)o1	>57	i
COc1ccccc1CNC(=O)C1CCC(CNc2c(N3CCOCC3)c(=O)c2=O)CC1 (centres undefined)	.	i
CN(C)C(=O)c1ccc(-c2nc(Nc3ccncc3)c3ccccc3n2)cc1	.	i
COc1ccc(-c2nc(-c3ccc(Br)cc3)no2)c(OC)c1	6.3*	i
COc1ccccc1CNC(=O)c1oc2ccc(S(=O)(=O)N3CCCC3)cc2c1C	>57	i
CCCC(=O)N1CCN(c2ccc(C(=O)c3ccc(OC)c(Br)c3)cc2F)CC1	.	i
CN(C)CCCN1C(=O)C(=O)/C(=C(/O)c2ccc(OCc3ccccc3)cc2)C1c1cccnc1 (centres undefined)	>57	i
CCOc1ccc(Nc2cc(C)nc(-n3nc(C)cc3C)n2)cc1	6.3*	i
Cc1nc(NC(=O)CSc2ccccc2N)sc1C	>57	i
O=C(NCc1ccc2c(c1)OCO2)c1ccc(COc2cccc(Cl)c2)o1	>57	i
CCc1c(C)nc2ncnn2c1N1CCC(C(=O)Nc2ccccc2)CC1	>57	i
Cn1c(Cn2c(=O)sc3ccccc32)nnc1SCC(N)=O	.	i
C=CCN=C(NC#N)SCc1ccccc1Cl	i	i
C=CCN(c1ccc(C(N)=O)cc1)S(C)(=O)=O	>57	i
C1=C(c2ccccc2)Nc2nnnn2C1	>57	i
CCCCCn1c(N2CCC(C(N)=O)CC2)nc2c1c(=O)[nH]c(=O)n2C	>57	i
COC(=O)[C@@]1(Cc2ccc(F)cc2)[C@H]2c3cc(C(=O)N4CCCC4)n(CCc4ccccn4)c3C[C@H]2CN1C(=O)c1ccccc1	.	i
COc1cc(C2C(C(=O)c3cccs3)=C(O)C(=O)N2Cc2ccco2)cc(OC)c1OC (centres undefined)	.	i
Cc1cc(C)c(C#N)c(SCC(=O)OC2CCCCC2)n1	>57	i
Cc1ccc(C(=O)c2ccccc2C(=O)O)c(O)c1	.	i
O=C1C2C3C=CC(C2C(=O)N1CN1CCOCC1)C1C2C(=O)N(CN4CCOCC4)C(=O)C2C31 (centres undefined)	.	i
Cc1c(NC(=O)CSc2ccc3c(c2)OCCO3)c(=O)n(-c2ccccc2)n1C	>57	i
C[C@@H](NC(=O)/C(C#N)=C/c1ccc(O)c(O)c1)c1ccccc1	.	i
CCn1c(/C(C#N)=C(\O)CCc2ccccc2)nc2ccccc21	>57	i
COc1ccc(C2=CC(c3c(C)nn(-c4ccccc4)c3Cl)n3nnnc3N2)cc1OC (centres undefined)	>57	i
CCCCn1c(SCC2CCCCO2)nc2cc(S(N)(=O)=O)ccc21 (centres undefined)	>57	i

4 records drawn at random from the list so far:
SMILES	Bst PK mod	YjeE inh
O=C1C2C3C=CC(C2C(=O)N1CN1CCOCC1)C1C2C(=O)N(CN4CCOCC4)C(=O)C2C31 (centres undefined)	.	i
COC(=O)[C@@]1(Cc2ccc(F)cc2)[C@H]2c3cc(C(=O)N4CCCC4)n(CCc4ccccn4)c3C[C@H]2CN1C(=O)c1ccccc1	.	i
Cc1c(NC(=O)CSc2ccc3c(c2)OCCO3)c(=O)n(-c2ccccc2)n1C	>57	i
Cc1ccc(C(=O)c2ccccc2C(=O)O)c(O)c1	.	i

Following part.
SMILES	Bst PK mod	YjeE inh
N#CC1=C(SCc2ccccc2Cl)NC(=O)C(C(N)=O)C1 (centres undefined)	?	i
CCn1c(N2CCN(CC(=O)c3c(C)n(C)c4ccccc34)CC2)nc2c1c(=O)[nH]c(=O)n2C	>57	i
Cc1cc(C(=O)CSc2nn(-c3ccccc3)c(=S)s2)c(C)n1Cc1ccco1	>57	i
O=C(N1CCN(c2ccccc2)CC1)C(F)(F)C(F)(F)F	.	i
Cc1cc(C)c(NC(=O)CSc2nnc(-c3ccco3)n2N)c(C)c1	>57	i
O=C(c1ccco1)N1CCN(S(=O)(=O)c2ccc(S(=O)(=O)NC3CC3)cc2)CC1	>57	i
CCOC(=O)N1CCN(C(=O)c2nn(-c3cc(OC)cc(OC)c3)c(=O)c3ccccc23)CC1	>57	i
Cc1cc(S(=O)(=O)N2CCN(Cc3ccc4c(c3)OCO4)CC2)cc(C)c1N1CCCC1=O	.	i
CCCCCCCC/C=C\CCCCCCCC(=O)N(CCO)CCO	.	i
COc1ccc2[nH]c3nc(SCc4nnc(-c5ccccc5)o4)nnc3c2c1	>57	i

A few values from above.
Bst PK mod with Cc1cc(C(=O)CSc2nn(-c3ccccc3)c(=S)s2)c(C)n1Cc1ccco1 stands at >57
Bst PK mod with CCOC(=O)c1ccc2[nH]c3c(c2c1)CCCCC3=O stands at >57

Further structures.
SMILES	Bst PK mod	YjeE inh
NC(=O)CSc1nnc(-c2ccc(S(=O)(=O)N3CCCC3)cc2)n1Cc1ccco1	>57	i
O=C(Cc1cccs1)NCc1ccncc1	>57	i
COc1cccc(OC)c1OCCCOc1c(OC)cccc1OC	>57	i
COc1ccc(CCNC2CCN(C)CC2)cc1OC	>57	i
CCOC(=O)c1cc(-c2nnc(SCC(=O)Nc3ccc(F)cc3)o2)c(C)nc1C	>57	i
COC(=O)c1cc(NC(=O)CN2C(=O)CSC2=O)ccc1Cl	>57	i
COc1ccccc1N1CCN(C(=O)CSc2ccc3c(C)cc(C)nc3n2)CC1	?	i
COc1ccc(Cl)cc1NC(=O)c1c(-c2ccccc2)noc1C	>57	i
Cc1ccc(-c2noc(C3CCCN(C(=O)c4ccccc4)C3)n2)o1 (centres undefined)	>57	i
CC1=C(C(=O)NC2CCCC(C)C2C)C2(CCCCC2)OC1=O (centres undefined)	.	i
CSCCC1NC(=O)N(CC(=O)Nc2ccc(N3CCCCC3)cc2)C1=O (centres undefined)	.	i
CCc1ccccc1NC1=NCC(=O)N1C1CCCCC1	>57	i
COC(=O)c1ccccc1NC(=O)CSc1nc2ccccc2c(=O)[nH]1	>57	i
CC(=O)NCCc1ccc(S(=O)(=O)Nc2cccnc2)cc1	>57	i
C=CCOC(=O)c1[nH]c2c(c1C)C(=O)CC(c1ccco1)C2 (centres undefined)	.	i
COc1ccc(-c2oc3ncn(CCN4CCOCC4)c(=N)c3c2-c2ccc(OC)cc2)cc1	>57	i
O=C(CN1C2CCCC1CC(NC(=O)c1ccco1)C2)Nc1ccccc1C(F)(F)F (centres undefined)	>57	i
Cc1nn(C)c(C)c1CN(C)C(=O)c1cc2nc(-c3ccco3)cc(C(F)(F)F)n2n1	>57	i
COc1ccc(-c2cc(N)n(S(=O)(=O)c3c(F)c(F)c(F)c(F)c3F)n2)cc1OC	i	i
Cc1cc(Cl)c(S(=O)(=O)Nc2ccc3c(c2)OCCO3)cc1OCC(N)=O	>57	i

Single records, as listed above. Order of values: Bst PK mod | YjeE inh
`COC(=O)c1ccccc1NC(=O)CSc1nc2ccccc2c(=O)[nH]1` is entered as >57 | i
`Cc1cc(Cl)c(S(=O)(=O)Nc2ccc3c(c2)OCCO3)cc1OCC(N)=O` is entered as >57 | i

The list goes on:
SMILES	Bst PK mod	YjeE inh
CCOc1ccc(S(=O)(=O)Nc2ccc(S(=O)(=O)N3CCOCC3)cc2)cc1	>57	i
O=C(COc1ccccc1)Nc1ccccc1N1CCN(c2ccccc2)CC1	>57	i
CC(C)Oc1cc(O)c2c(c1)OCC=C2CCC(=O)O	.	i
C=CCN1C(=O)C(O)(CC(=O)c2c(C)n[nH]c2C)c2cc(Br)ccc21 (centres undefined)	>57	i
CC(C)CN1C(=O)NC(NC(=O)c2ccco2)(C(F)(F)F)C1=O (centres undefined)	>57	i
CCC(=O)N1CCCc2cc(S(=O)(=O)N3CCN(c4ccccc4F)CC3)ccc21	.	i
CC(C)CC(NC(=O)C1CCC(C)CC1)C(=O)N1CCN(c2ccccn2)CC1 (centres undefined)	.	i
Cc1ccc2c(=O)c(CN(C)C3CCN(C)CC3)c(C)[nH]c2c1C	>26	.
COC(=O)c1ccc2c(c1)S(=O)(=O)NC(=NCc1ccco1)S2	>57	i
CNC(=O)NC1CCCc2ccccc21 (centres undefined)	.	i
Cn1c(=O)[nH]c(=O)c2c1nc(NCCCn1ccnc1)n2Cc1ccc(F)cc1	>57	i
CN(Cc1ccccc1)S(=O)(=O)c1ccc2c(c1)OCCO2	>57	i
O=C(NCC1CCNCC1)c1ccncc1	>57	i
C=CCn1c(=O)n(CCC#N)c(=O)n(CCC#N)c1=O	.	i
Cn1c(=O)oc2cc(S(=O)(=O)N3CCCc4ccccc43)ccc21	.	i
Cc1[nH]nc2c1C1(CCOCC1)C(C#N)=C(N)O2	>57	i
C=C(C)Cn1c(CCCNC(=O)CCC)nc2ccccc21	>57	i
COC(=O)[C@H](CCSC)NC(=O)NC1CCN(Cc2ccccc2)CC1	>57	i
COc1cccc(Cn2c(=O)cnc3cnc(Oc4cccc(Cl)c4)nc32)c1	.	i
CC(C)(/C=N/O)/[N+]([O-])=C/C=[N+](\[O-])C(C)(C)/C=N/O	>57	i
CN(C(=O)C12CC3CC(CC(C3)C1)C2)C1(C)CCS(=O)(=O)C1 (centres undefined)	>57	i
O=C(NCC1CCCO1)C1CCCCN1S(=O)(=O)c1ccc(F)cc1 (centres undefined)	>57	i
COC(=O)CSc1ccccc1C(=O)OC	>57	i
O=C(Nc1nc(-c2nc3ccccc3s2)cs1)c1ccc(S(=O)(=O)N2CCOCC2)cc1	>57	i
COc1ccc(-c2cc(CCCC(=O)NCCc3ccc(OC)cc3OC)no2)cc1	>57	i
CO[C@@H]1/C=C\O[C@]2(C)Oc3c(C)c(O)c4c(O)c(c(CN(C)C)c(O)c4c3C2=O)NC(=O)/C(C)=C\C=C[C@@H](C)[C@@H](O)[C@H](C)[C@@H](O)[C@H](C)[C@H](OC(C)=O)[C@@H]1C	.	i
COc1cccc(C2/C(=C(/O)c3ccncc3)C(=O)C(=O)N2CCCN(C)C)c1 (centres undefined)	>57	i
Cc1ccc(-c2nnc(N(C)C(=O)c3ccccn3)s2)cn1	>57	i
COc1cc(C(=O)Nc2ccc(S(=O)(=O)Nc3cc(C)on3)cc2)cc(OC)c1OC	>57	i
O=C1CCCc2c1[nH]c1ccc(CN3CCCCC3)cc21	.	i
CCCCc1ccc(NC(=O)c2c(C)noc2C)cc1	>57	i
O=C(CC(Cc1ccccc1)C(=O)O)NCCc1ccc2c(c1)OCO2 (centres undefined)	>57	i
Cc1cc(C)n(-c2ccn(Cc3ccc(Cl)cc3Cl)c(=O)n2)n1	?	i
CC(=O)S[C@@H]1CC2=CC(=O)CC[C@@]2(C)[C@H]2CC[C@]3(C)[C@H](CC[C@@]34CCC(=O)O4)[C@H]12	.	i
Cc1ccc(Nc2cc(C)nn2-c2nc(C)cc(C)n2)cc1	.	i
Cn1c(SCC(=O)N2CCCCC2)nc2cccnc21	>57	i
CCC1C(=O)n2nc(-c3ccccc3)cc2N=C1C (centres undefined)	i	i
CNc1nc(-c2ccc3c(c2)OCO3)nc2ccccc12	.	i
COc1cc(OC)cc(C(=O)NC(C(=O)NCCN(C)C)C23CC4CC(CC(C4)C2)C3)c1 (centres undefined)	>57	i
Cn1c(=O)c2cn(-c3cccc4ccccc34)cc2n(C)c1=O	>57	i
O=c1[nH]c2ccccc2nc1-c1cccs1	.	i
COc1ccccc1N1CCN(C(c2ccccc2Cl)c2nnnn2C(C)(C)C)CC1 (centres undefined)	>57	i
CCOCCCn1c(=N)c(C(=O)NCc2ccc3c(c2)OCO3)cc2c(=O)n3cccc(C)c3nc21	.	i
